Assay outcomes from PubChem.
Arbovirus anti – blocks arbovirus infection; arbovirus infection cell-based antiviral screen; hit rate 0.37% among 200,000; inhibition, % at 10 µM; AID 1251;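 active = inhibition from about 30%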;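 also: bluetongue infection of BSR cells; cell survival read as ATP light after 72 h; 0% = infected wells without compound and 100% = uninfected wells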
Mtb growth – M. tuberculosis H37Rv growth inhibitors, H37Rv strain (AID 1626); M. tuberculosis H37Rv growth inhibition; higher % means a stronger effect; inhibition, % at 10 µM; hits with a dose series show IC50 in µM; hit rate 0.95% among 220,000;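 active = confirmed in a dose series; inconclusive = inhibition above 80% but not taken into the dose series; inactive = below 80% or under 30% at every dose of the series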;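 also: bacteria incubated seven days before Alamar blue readout; 0% = bacteria only wells and 100% = bacteria with antibiotic wells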
RecA splice inh – inhibitors of M. tuberculosis RecA intein splicing | hit rate 0.75% among 290,000 | cell-free RecA intein splicing, fluorescence | inhibition, %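 (about 9 µM by stock and volumes)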 | AID 2221; in the data active = inhibition above about 30%; inconclusive = no clear call, values can overlap the other calls;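 also: 0% = vehicle wells and 100% = reference inhibitor control wells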
Target sequence (P9WHJ3 whole entry, looked up, canonical isoform): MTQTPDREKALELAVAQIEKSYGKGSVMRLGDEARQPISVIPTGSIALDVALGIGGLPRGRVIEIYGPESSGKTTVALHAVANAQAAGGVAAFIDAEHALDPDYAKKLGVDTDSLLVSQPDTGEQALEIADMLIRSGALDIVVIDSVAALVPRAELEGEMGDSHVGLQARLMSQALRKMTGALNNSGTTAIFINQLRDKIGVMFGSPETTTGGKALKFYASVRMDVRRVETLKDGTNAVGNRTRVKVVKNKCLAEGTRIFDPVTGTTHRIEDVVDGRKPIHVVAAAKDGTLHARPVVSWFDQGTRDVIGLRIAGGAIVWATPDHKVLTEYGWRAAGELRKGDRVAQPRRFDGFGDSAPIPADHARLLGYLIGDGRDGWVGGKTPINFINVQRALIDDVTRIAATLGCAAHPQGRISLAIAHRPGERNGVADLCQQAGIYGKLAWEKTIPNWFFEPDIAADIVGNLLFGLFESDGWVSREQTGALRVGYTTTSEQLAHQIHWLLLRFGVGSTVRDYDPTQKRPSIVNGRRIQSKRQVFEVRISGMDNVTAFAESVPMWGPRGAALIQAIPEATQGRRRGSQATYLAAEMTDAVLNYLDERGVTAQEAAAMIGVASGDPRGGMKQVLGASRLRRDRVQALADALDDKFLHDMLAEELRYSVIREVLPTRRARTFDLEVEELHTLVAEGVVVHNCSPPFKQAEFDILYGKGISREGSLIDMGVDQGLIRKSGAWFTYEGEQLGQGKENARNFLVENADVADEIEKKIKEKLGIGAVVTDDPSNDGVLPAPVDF
YopH inh – blocks Yersinia enterocolitica YopH tyrosine phosphatase; AID 898; hit rate 0.16% among 140,000; fluorescence Ex485/Em525; inhibition, %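 (about 10 µM by stock and volumes)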;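 active = inhibition of 50% or more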;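 also: controls were vehicle for no effect and minimum signal wells for full effect; inactives centre near -20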
Mtb betalactam – beta-lactam sensitization of Mtb H37Rv. M. tuberculosis H37Rv growth with meropenem, percent inhibition; hits of this screen are not shown here. inhibition, % at 25 µM. hit rate 0.27% among 330,000;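 active = about 74% or more and at least 40 points above the plate without the antibiotic, then above 30% in a dose series; inconclusive = first-round hits that could not be retested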;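 also: growth measured after seven days incubation then overnight dye step; 0% = bacteria only wells and 100% = bacteria with antibiotic; twin plates without the antibiotic show which effects depend on it; some results filed as inactive read as strong as hits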
Arbovirus anti repeat – recorded beside Arbovirus anti, whose call it bears; inhibition, %; measured here: 10K subset replicate screen; many hits read low in the repeat;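 first of two repeat runs on a subset; 0% = infected and 100% = uninfected wells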
An asterisk follows results filed as active. Some of the compounds tested; rates above refer to the full screens.

`COc1ccc(C2CC(c3cccs3)=NN2C(=O)CCl)cc1OC` (centres undefined) gave RecA splice inh 76.6* and Mtb betalactam 99.2.
`COc1cc(O)ccc1/C=N/NC(=O)c1ccc([N+](=O)[O-])cc1` gave Arbovirus anti 13.3, Mtb growth 2.6%, RecA splice inh -2.6 and Mtb betalactam -0.8.
`O=C(/C=C/c1ccc(Cl)cc1Cl)N1CCc2ccccc21` gave Arbovirus anti -9.1, Mtb growth 1.6%, RecA splice inh 1.9, YopH inh -27.7 and Mtb betalactam inconclusive.
Screening COc1ccc(C(=O)C[n+]2ccc3c(c2)nnn3-c2ccccc2)cc1 returned Arbovirus anti -2.1, Mtb growth 1.5%, RecA splice inh 1.2 and Mtb betalactam -10.3.
Screening O=c1c2c(nc3c(-c4cccc(Br)c4)c[nH]n13)CCCC2 returned Arbovirus anti -10.1, Mtb growth inconclusive, YopH inh -39.6 and Mtb betalactam 86.7.
`CCOC(=O)N1CCOCCOCCN(C(=O)OCC)CCOCC1` gave Arbovirus anti 12.5, Mtb growth -0.4%, YopH inh -39.2 and Mtb betalactam -6.8.
For O=C(Nc1ccccc1)Oc1ccccc1 the results were Arbovirus anti 2.4, Mtb growth -7.1%, RecA splice inh -1.8, YopH inh -7.3 and Mtb betalactam -0.9.
`CC(=O)NCc1nc2ccccc2n1Cc1ccccc1C` gave Arbovirus anti 8.5, Mtb growth -1.9%, RecA splice inh 1.5, YopH inh -16.0, Mtb betalactam 0.0 and Arbovirus anti repeat 8.2.
Screening CC(C)(C)CN1CCNC(=O)C1CC(=O)NCCc1ccccc1F (centres undefined) returned Arbovirus anti -0.8, Mtb growth 1.6%, RecA splice inh 0.2 and Mtb betalactam 2.8.
`CCOc1ccc(NC(=O)CN(C)S(=O)(=O)c2cccs2)cc1` gave Arbovirus anti -7.9, Mtb growth -1.4%, RecA splice inh 0.2, YopH inh -3.3 and Mtb betalactam -0.6.
Cc1ccc2nc(-c3ccc(NS(=O)(=O)c4c(C)n(C)c(=O)n(C)c4=O)cc3)sc2c1 was read as Mtb growth 11.5%, RecA splice inh -1.7 and Mtb betalactam -5.9.
For COc1ccc(CNC(=O)CN2C(=O)C3CCCN3c3ncc(Cl)cc32)cc1 (centres undefined) the results were Arbovirus anti 2.4, Mtb growth -2.3%, RecA splice inh -8.3, YopH inh -16.3 and Mtb betalactam -2.7.
CC1CN(CCCOc2ccc([N+](=O)[O-])cc2)CC(C)O1 (centres undefined) was read as Arbovirus anti -3.3, Mtb growth -5.5%, RecA splice inh -0.6, YopH inh -18.8 and Mtb betalactam 3.6.
`O=C(OCCN1CCOCC1)c1ccccc1` gave RecA splice inh 0.6 and Mtb betalactam -9.6.
Screening COc1cc(NC(=O)CN2CCC(C)CC2)c(C)cc1[N+](=O)[O-] returned Arbovirus anti -8.6, Mtb growth -5.9%, RecA splice inh 0.4, YopH inh -19.7 and Mtb betalactam 5.3.
CCOc1ccc(NC(=S)NS(=O)(=O)c2cc(Br)ccc2OCC)cc1 was read as RecA splice inh 5.0 and Mtb betalactam 91.5.
For CCn1c(C)nnc1SCC(=O)Nc1ccc2c(c1)OCCO2 the results were RecA splice inh -2.0 and Mtb betalactam 0.6.
Screening C#CC[N+]1(CC#Cc2cccc3ccccc23)CCOCC1 returned Arbovirus anti 6.1, Mtb growth -1.6%, RecA splice inh -3.7 and Mtb betalactam -1.7.
`CC(C)c1nnc(NC(=O)CCC(=O)Nc2ccccc2)s1` gave Mtb growth -6.7% and Mtb betalactam -5.2.
`Cc1cc2ccccn2c1C(C[N+](=O)[O-])c1c(F)cccc1Cl` (centres undefined) gave RecA splice inh 9.8 and Mtb betalactam 100.2.
Screening Cc1cc(O)cc(C)c1NS(=O)(=O)c1ccc2ccccc2c1 returned RecA splice inh 3.0 and Mtb betalactam -2.1.
For COc1ccc(Cl)cc1CN1CCN(c2nc(C)cc(C)c2C#N)CC1 the results were Arbovirus anti 2.1, Mtb growth 8.3%, RecA splice inh 7.4, YopH inh -47.3 and Mtb betalactam 37.1.
`O=Cc1ccc(OCc2ccccn2)cc1` gave Arbovirus anti 34.1*, Mtb growth 1.2%, RecA splice inh -0.5, YopH inh -23.3 and Mtb betalactam 5.8.
For C=CCn1c(SCC(=O)Nc2ccc(F)cc2)nc2ccccc2c1=O the results were RecA splice inh 2.5 and Mtb betalactam -20.7.
CC(C)(CNC(=O)Cc1ccc(Cl)cc1Cl)N1CCCCC1 was read as RecA splice inh 1.6 and Mtb betalactam -4.4.
For COc1ccc(Nc2nc3c([nH]2)c(=O)[nH]c(=O)n3C)cc1 the results were Arbovirus anti 6.7, Mtb growth 3.0%, RecA splice inh -3.9 and Mtb betalactam -8.4.
For S=C(NCCN1CCOCC1)Nc1ccc(Nc2ccccc2)cc1 the results were Arbovirus anti -0.9, Mtb growth 7.3%, RecA splice inh -3.9 and Mtb betalactam -2.2.
For Cc1nc(SCC(N)=O)c(C#N)c(C)c1C the results were Mtb growth 5.0%, RecA splice inh 0.3 and Mtb betalactam -0.6.
Screening CC(=O)c1cc(C#N)c(N2CC(C)OC(C)C2)nc1C (centres undefined) returned Arbovirus anti 4.5, Mtb growth -1.2%, RecA splice inh 0.5 and Mtb betalactam -0.5.
Cc1ccc(NC(=O)C2CCN(C(=O)c3cccs3)CC2)cc1 was read as RecA splice inh -0.8 and Mtb betalactam 8.5.
Screening O=c1c2c(-c3ccccc3)csc2ncn1/N=C/c1c2ccccc2cc2ccccc12 returned Arbovirus anti 10.9, Mtb growth 4.0%, RecA splice inh -0.3 and YopH inh -22.6.
Screening CC(C)CCNC(=O)CN1C(=O)NC(c2ccccc2)(c2ccccc2)C1=O returned RecA splice inh 0.2 and Mtb betalactam 5.2.
Cc1cccc(NC(=O)CSC(N)=O)c1C was read as Arbovirus anti 2.3, Mtb growth -6.1%, RecA splice inh -3.8, YopH inh -38.2 and Mtb betalactam -6.0.
Screening CC(c1ccccc1)N1C(=O)/C(=C/c2ccncc2)SC1=S (centres undefined) returned Mtb growth -0.5%, RecA splice inh 10.7 and Mtb betalactam 25.3.
`CCCc1c(O)nc(SCc2ccccc2)[nH]c1=O` gave Arbovirus anti 6.6, Mtb growth -3.4%, RecA splice inh 0.5, YopH inh 3.4 and Mtb betalactam -8.5.
`CCCCn1c(O)c(C(CC)=NCc2ccc3c(c2)OCO3)c(=O)[nH]c1=O` gave Arbovirus anti -6.3, Mtb growth -0.9%, RecA splice inh 4.0, YopH inh -42.1 and Mtb betalactam -2.7.
Screening COc1ccc(CCNC(=S)NC(=O)c2cccc(Cl)c2)cc1OC returned Mtb growth 13.3%, RecA splice inh 4.5 and Mtb betalactam -1.7.
Screening CC(=O)N1CCN=C1SCc1ccc(C)cc1 returned Arbovirus anti 1.2, Mtb growth -2.4%, RecA splice inh 3.2, YopH inh 13.5 and Mtb betalactam 6.4.
CCOC(=O)c1c(-c2ccccc2)csc1NC(=O)C(C)NCc1ccco1 (centres undefined) was read as Arbovirus anti 9.4, Mtb growth 7.5%, RecA splice inh 10.8, YopH inh 0.0 and Mtb betalactam -5.7.
`CCOC(=O)c1ccc(N(C(=O)CNC(=O)c2ccco2)C(C(=O)NCC2CCCO2)c2ccc(OC)c(OC)c2)cc1` (centres undefined) gave RecA splice inh -0.4 and Mtb betalactam -5.7.
Screening CCOC(=O)C1CCN(CCC(=O)Nc2ccc(F)cc2)CC1 returned Arbovirus anti 3.5, Mtb growth -2.1%, RecA splice inh -1.5 and Mtb betalactam -5.4.
COc1cccc(-c2cc(C(=O)NN3CCOCC3)c3ccccc3n2)c1 was read as Arbovirus anti -3.7, Mtb growth 5.4%, RecA splice inh -4.4, YopH inh -19.8 and Mtb betalactam -0.2.
Screening Cc1ccc2c(c1)N(C(=O)CCC(=O)N1CCOCC1)CCO2 returned RecA splice inh 1.9 and Mtb betalactam 3.1.
`O=C(COC(=O)Cc1ccc(Br)cc1)NCC1CCCCC1` gave Arbovirus anti -0.9, Mtb growth -5.8% and Mtb betalactam -2.8.
`C=CCn1c(OCc2ccccc2)n[nH]c1=S` gave RecA splice inh -0.2 and Mtb betalactam 3.7.
CC(=O)c1cc(F)c(N2CCN(C(=O)COc3ccc(F)cc3)CC2)cc1C was read as Arbovirus anti 8.5, Mtb growth -3.9%, RecA splice inh 2.3, YopH inh 7.3 and Mtb betalactam -11.1.
Screening O=C(O)CNS(=O)(=O)c1c(Cl)cccc1Cl returned Mtb growth -0.8%, RecA splice inh 0.7 and Mtb betalactam -2.2.
For Cc1ccc(NC(=O)CCc2nnc(SCC(=O)Nc3ccccc3C)n2C)cc1Cl the results were Arbovirus anti 3.6, Mtb growth -1.1%, RecA splice inh 2.1, YopH inh -38.2 and Mtb betalactam 1.8.
For O=C(COc1cccc2cccnc12)Nc1nccs1 the results were Arbovirus anti 9.2, Mtb growth 10.5%, RecA splice inh 4.0, YopH inh -25.3 and Mtb betalactam 81.6.
Screening COC(=O)c1ccc(S(=O)(=O)NCc2ccccc2)n1C returned Mtb growth 14.9% and Mtb betalactam -5.0.
`Cc1cc(C)c(C(=O)c2ccc(C(=O)N(C(C)C)C(C)C)cc2)c(C)c1` gave Arbovirus anti -3.1, Mtb growth 4.3%, RecA splice inh 10.1, YopH inh -31.0 and Mtb betalactam -1.8.
`CCC1(CC)NC(=O)N(CC(=O)OCC(=O)Nc2ncc(Cl)cc2Cl)C1=O` gave RecA splice inh 9.1 and Mtb betalactam -0.8.
For Cc1ccc(C)n1NC(=O)c1ccccc1 the results were Arbovirus anti 3.7, Mtb growth -5.7%, RecA splice inh 1.3, YopH inh -3.5 and Mtb betalactam 3.7.
Screening Cn1c(=O)[nH]c(=O)c2c1nc(N1CCCCC1)n2CC(O)CN1CCCCC1 (centres undefined) returned Arbovirus anti 6.1, Mtb growth -6.9%, RecA splice inh -5.0, YopH inh -0.5 and Mtb betalactam -6.8.
Screening O=C(Nc1nccs1)C(Cl)(Cl)Cl returned Arbovirus anti 4.4, Mtb growth 0.2%, RecA splice inh 1.8 and Mtb betalactam 3.1.
COc1ccc2nc(C3CCCCC3)nc(C3CCCCC3)c2c1 was read as RecA splice inh 0.4 and Mtb betalactam 4.3.
For CCC(=O)N1CC2(C)CN(C(=O)CC)CC(C)(C1)C2 the results were Arbovirus anti 2.4, Mtb growth -9.3%, YopH inh -15.5, Mtb betalactam inconclusive and Arbovirus anti repeat 5.4.
`CCN1C(=O)C2C(c3cccc(F)c3)NC(C)(C(=O)OC)C2C1=O` (centres undefined) gave Arbovirus anti 9.3, Mtb growth -3.3%, RecA splice inh -0.7, YopH inh -48.3 and Mtb betalactam -8.5.
For CC(=O)NCC(=O)NC1CCCc2c1cnn2-c1ccc(C(C)(C)C)cc1 (centres undefined) the results were RecA splice inh -1.1 and Mtb betalactam 0.2.
Screening O=c1c2ccccc2nc(/C=C/c2ccc3c(c2)OCO3)n1CCCO returned Arbovirus anti -33.8 and Mtb growth 1.5%.

Fetched by compound from the list above (two):
Screening Cc1ccc2c(c1)N(C(=O)CCC(=O)N1CCOCC1)CCO2 returned RecA splice inh 1.9 and Mtb betalactam 3.1.
For CC(=O)NCC(=O)NC1CCCc2c1cnn2-c1ccc(C(C)(C)C)cc1 (centres undefined) the results were RecA splice inh -1.1 and Mtb betalactam 0.2.

Gathered by group: the compounds so far containing a cyano group (3)
For COc1ccc(Cl)cc1CN1CCN(c2nc(C)cc(C)c2C#N)CC1 the results were Arbovirus anti 2.1, Mtb growth 8.3%, RecA splice inh 7.4, YopH inh -47.3 and Mtb betalactam 37.1.
For Cc1nc(SCC(N)=O)c(C#N)c(C)c1C the results were Mtb growth 5.0%, RecA splice inh 0.3 and Mtb betalactam -0.6.
Screening CC(=O)c1cc(C#N)c(N2CC(C)OC(C)C2)nc1C (centres undefined) returned Arbovirus anti 4.5, Mtb growth -1.2%, RecA splice inh 0.5 and Mtb betalactam -0.5.

Remaining list, next part.
CCOC(=O)C1CCN(C(=O)C2CCN(c3nnc(-n4cccc4)s3)CC2)CC1 was read as RecA splice inh -0.4 and Mtb betalactam 99.8.
`CC(C)c1ccc(C2N3CCCN23)cc1` (centres undefined) gave Arbovirus anti 1.6, Mtb growth 4.3%, RecA splice inh -0.5, YopH inh -27.1 and Mtb betalactam -4.0.
For N=C1C(c2ccccc2)=C(O)CN1c1cccc(S(=O)(=O)N2CCCCC2)c1 the results were Mtb growth -8.0%, RecA splice inh -1.5 and Mtb betalactam 40.7.
For Cn1c(/C=N/NC(=O)c2ccccc2Br)nc2ccccc21 the results were Arbovirus anti -11.9, Mtb growth 6.8%, RecA splice inh 1.9, YopH inh -40.9 and Mtb betalactam -0.1.
Screening O=C1C2C3C=CC(C4CC34)C2C(=O)N1/N=C/c1ccc([N+](=O)[O-])o1 (centres undefined) returned Arbovirus anti 2.8, Mtb growth 0.1%, RecA splice inh -6.4 and Mtb betalactam 99.8.
